# From PubChem
# StopGo FLuc = FMDV 2A StopGo reporter, firefly signal | HEK cells with a luciferase reporter of 2A StopGo recoding | Potency, µM (series often up to 57.5 µM), without a hit: at the highest dose signal change, negative = less light | 120,000 tested, 0.23% active; active = well fitted falling curve with a large enough effect; inconclusive = small, poorly fitted or top-dose-only effect; inactive = no such curve, though single readings can be large or run the other way; also: nearly all actives have a fitted effect of over 60% in size; overnight with compound
# 2A Renilla = lowers the Renilla signal of an FMDV 2A StopGo reporter | HEK cells with a luciferase reporter of 2A StopGo recoding | AID 1745857 | 120,000 tested, 0.32% active | Potency, µM (titrated, usually from 57.5 µM), without a hit: at the highest dose signal change, negative = less light; active means well fitted falling curve with a large enough effect; inconclusive means small, poorly fitted or top-dose-only effect; inactive means no such curve, though single readings can be large or run the other way; also: nearly all actives have a fitted effect of over 55% in size; overnight with compound
# Numbers without * were called inactive; ? = inconclusive; & = joins results of further samples; [ ] = remark or other dose. % is scaled to controls: 0 for no effect and ±100 for the full control effect; potency is read from the fitted curve at half-maximal effect.
# Values run as follows: 2A Renilla | StopGo FLuc
CCNc1nc(-c2ccc(NC(=O)CC)cc2)cs1
 : -9% | 0%
COc1ccc(-c2c(C)oc3cc(OCC(=O)Nc4ccc5c(c4)OCCO5)ccc3c2=O)cc1
 : -8% | 176%[activator]
CCCCC(=O)Nc1cccc(-c2nc3ncccc3o2)c1C
 : 4%&-5% | 0%&62%
CN(C(=O)Cn1cccc1-c1nc(-c2ccc(F)cc2)no1)c1ccccc1
 : -3% | -5%
Cc1ccc(C=Nc2ccc(C)c(N=Cc3ccc(C)s3)c2)s1
 : 9% | 81%[activator]
O=C(Nc1ccc(-n2cncn2)nc1)C1CCCCC1
 : -4%[1.06 µM] | 4%
O=C(COc1ccc2c(=O)c(Oc3ccc(F)cc3)coc2c1)NCc1ccc(F)cc1
 : 8% | 19%
CCN(CC)C(=O)CN(C)C(=O)CCc1ccccc1
 : -14% | 2%
CN(Cc1ccc(-c2ccc(Cl)cc2)o1)C(=O)CNC(=O)c1ccccc1F
 : 9% | -7%
O=C(CCl)Nc1ccc2c(c1)CCC2
 : ? | ?
CCc1ccc(NC(=O)c2ccc(F)c(S(=O)(=O)NCCc3ccc(OC)c(OC)c3)c2)cc1
 : ? | ?
COc1cccc(C(c2sc3nc(-c4ccco4)nn3c2O)N2CCOCC2)c1 (centres undefined)
 : 3% | -7%
Cn1nc(C(=O)NCc2cccc(Cl)c2)c2c1-c1ccccc1S(=O)(=O)C2
 : 40%[activator] | -24%
Cc1ccccc1NC(=O)Cn1c(=O)n(CCCC(=O)NCc2ccc3c(c2)OCO3)c(=O)c2ccccc21
 : -5% | -5%
CCc1ccccc1N1C(=O)N(Cc2cc(=O)n3ccccc3n2)c2ccccc2S1(=O)=O
 : 4% | -36%
Cc1ccc(Cl)cc1-n1ncc2c(Nc3ccc4c(c3)OCCO4)ncnc21
 : 8% | -33%
Cc1ccc(NC(=O)Cn2nnc3sc4c(c3c2=O)CCC(C)C4)cc1 (centres undefined)
 : -15% | 1%
Cc1cccc(OCC(=O)Nc2nonc2-c2ccc(Br)cc2)c1C
 : 5% | 1%
CCCOc1ccc(C(=O)CCC(=O)OCC(=O)Nc2c(C)cc(C)cc2Cl)cc1
 : 9% | 0%
Cc1cnc(C(=O)OCC(=O)N2c3ccccc3NC(=O)C2(C)C)cn1
 : -12% | -6%
Cc1ccccc1Cn1c(N2CCN(Cc3ccccc3)CC2)nc2c1c(=O)[nH]c(=O)n2C
 : 0% | 0%
Cc1cc2nc(SCC(=O)Nc3ccc4c(c3)OCO4)[nH]c2cc1C
 : 13% | 140%[activator]
CCCc1nc2ccccc2c(C(=O)OCC(=O)NCC(F)(F)F)c1CC
 : 15% | -8%
CCc1nc2nc(C)c(NS(=O)(=O)c3ccc(C)cc3)c(=O)n2[nH]1
 : -11% | -7%
Cc1nn(-c2ccccc2)c(C)c1CC(=O)N1CCN(S(=O)(=O)c2ccccc2F)CC1
 : -19% | -15%
CCCc1sc(C(=O)OCCOc2ccc(S(N)(=O)=O)cc2)cc1CC
 : 8% | 20%
O=S(=O)(c1ccc(F)cc1)N1CCN(c2nc(-c3cccs3)nc3ccccc23)CC1
 : -1% | -4%
CCn1c(C)c(C(C)=O)c2cc(OCC(O)CN3CCCCC3)ccc21 (centres undefined)
 : -5% | -4%
CN1c2cc(Cl)ccc2-c2nc(SCC(=O)Nc3ccc(F)cc3F)ncc2S1(=O)=O
 : -15% | -4%
CN(Cc1ccc2c(c1)OCCO2)CC(O)COc1ccccc1C(C)(C)C (centres undefined)
 : -4% | 5%

# Single records, from the list above.
# `CN(Cc1ccc2c(c1)OCCO2)CC(O)COc1ccccc1C(C)(C)C` (centres undefined) across the screens: 2A Renilla = -4%; StopGo FLuc = 5%
# `Cc1ccccc1Cn1c(N2CCN(Cc3ccccc3)CC2)nc2c1c(=O)[nH]c(=O)n2C` across the screens: 2A Renilla = 0%; StopGo FLuc = 0%
# `Cc1cc2nc(SCC(=O)Nc3ccc4c(c3)OCO4)[nH]c2cc1C` across the screens: 2A Renilla = 13%; StopGo FLuc = 140%[activator]

# Next compounds.
# Values run as follows: 2A Renilla | StopGo FLuc
COc1cc(NC(=O)Nc2c[nH]c(=O)[nH]c2=O)cc(OC)c1OC
 : -2% | -12%
CCC1(C)Cc2c(sc3nnn(CC(=O)Nc4cccc(Cl)c4)c(=O)c23)CO1 (centres undefined)
 : ? | ?
NC(=O)c1c(NC(=O)Cc2coc3cc4c(cc23)CCC4)sc2c1CCCC2
 : 29% | -7%
CC1=C(c2ccc(F)cc2)S(=O)(=O)N=C1N1CCC(C(=O)NCCc2ccccc2C)CC1
 : 2% | -10%
CCOc1cc(C2c3c(oc4ccccc4c3=O)C(=O)N2Cc2ccc(OC)cc2)ccc1O (centres undefined)
 : -14% | -12%
Cc1cccc(CN2CC=C(c3noc(CCC(=O)Nc4ccc(C)c(F)c4)n3)CC2)c1
 : 19% | -22%
CC(=O)Nc1ccc(NC(=O)C2CCN(c3ccc4nnc(C(C)C)n4n3)CC2)cc1
 : 2% | 3%
c1cnc2c(N3CCOCC3)nc(N3CCOCC3)nc2n1
 : 3% | 18%
CCc1ccc(S(=O)(=O)c2cn(CC(=O)Nc3cccc(C)c3)c3ccc(Cl)cc3c2=O)cc1
 : -12% | -2%
Cc1ccc(-c2ccc(/C=C/C(=O)c3ccc(Cl)cc3)o2)cc1Cl
 : -14% | -4%
Nc1n[nH]c(CC(=O)N(Cc2ccccc2)C2(C(=O)Nc3ccccc3)CCCCC2)n1
 : -17% | -16%
O=C(N[C@H]1N=C(c2ccccc2F)c2cccc3c2N(CC3)C1=O)c1cc2ccccc2[nH]1
 : -20% | ?
CCOc1ccc(C(=O)Nc2ccc(O)c(-c3nc4ccccc4o3)c2)cc1Br
 : 6% | 15%
Cc1ccc(NC(=O)c2c(C)oc3ccc(O)c(CN4CCOCC4)c23)c(C)c1
 : -6% | -18%
CCc1ccccc1NC(=O)c1nnn(-c2ccc(F)cc2)c1C
 : 15% | 189%[activator]
Cc1cccc(NC(=O)CSc2nc(C)c(Cc3ccccc3)c(=O)[nH]2)c1
 : 11% | 1%
Cc1ccc(C)c(C(C)NC(=O)CC(C)(C(=O)O)c2ccccc2)c1 (centres undefined)
 : 11% | -1%
CCOc1ccc(/C=C/C(=O)Oc2ccc(Br)cc2)cc1
 : 11% | 12%
COc1ccc(Nc2oc(-c3ccc(COc4cccc(C)c4)o3)nc2C#N)cc1
 : 0% | 24%
Cn1ccnc1C(=O)c1cccc(NC(=O)C(=O)NCc2ccccc2)c1
 : 3% | 38%[activator]
CCOc1ccccc1NC(=O)c1nc(-c2ccc(OC)cc2)n(-c2ccccc2)n1
 : ? | ?
CC(=O)NC1=NN(C(C)=O)C2(S1)C(=O)N(CCOc1ccccc1)c1c(Cl)cccc12 (centres undefined)
 : 80%[activator] | -4%
CN(C)c1ccc(NC(=O)Cn2cc(S(=O)(=O)Cc3ccccc3Cl)c3ccccc32)cc1
 : 128%[activator] | 0%
COC(=O)c1ccc(COc2ccc3c(-c4ccc(F)cc4)noc3c2)cc1
 : 16% | 16%
CCN(CC(=O)Nc1ccccc1OC)C(=O)c1cc(=O)c2cc(C)ccc2o1
 : -6% | -1%
O=C(O)c1nn(CC(=O)N2CCCCCCC2)c(=O)c2ccccc12
 : -2% | -9%
CN(C)C(CNC(=O)CCc1ncc(-c2c(F)cccc2F)o1)c1ccco1 (centres undefined)
 : -15% | -11%
Cc1oc2ncnc(N3CCCCC3)c2c1C(=O)N1CCN(c2cccc(Cl)c2)CC1
 : 0% | -22%
CCCn1c(-n2nc(C)c(C)c2C)nc2c1c(=O)n(CCN1CCCCC1)c(=O)n2C
 : -2% | -1%
COc1cc(/C(Cl)=N/O)cc(OC)c1OC
 : 6% | 2%

# Compounds listed so far that contain a COOH group (2):
# Values run as follows: 2A Renilla | StopGo FLuc
Cc1ccc(C)c(C(C)NC(=O)CC(C)(C(=O)O)c2ccccc2)c1 (centres undefined)
 : 11% | -1%
O=C(O)c1nn(CC(=O)N2CCCCCCC2)c(=O)c2ccccc12
 : -2% | -9%

# (listing goes on)
# Values run as follows: 2A Renilla | StopGo FLuc
Cc1nn(C)c(C)c1Nc1ccc(S(=O)(=O)NC(C)C)cc1[N+](=O)[O-]
 : -25% | -18%
CCOc1ccc(NC(=O)CCS(=O)(=O)c2ccc(Br)s2)cc1
 : 12% | 0%
N#Cc1nc(/C=C/c2ccc(F)cc2)oc1NCc1ccc2c(c1)OCO2
 : -3% | 36%[activator]
COCCNC(=O)CCCn1c(SCC(=O)Nc2ccc(F)cc2)nc2c(sc3ccccc32)c1=O
 : -12% | -18%
CC(NC(=O)CCc1ncc(-c2ccccc2Cl)o1)c1ccc(S(N)(=O)=O)cc1 (centres undefined)
 : 3% | 8%
Cc1cc(NC(=O)C(C)(C)C)cc(-c2nc3ncccc3o2)c1O
 : -14% | -19%
O=C(Cn1c(=O)ccc2cc(S(=O)(=O)N3CCCC3)ccc21)Nc1ccccc1
 : -13% | -18%
COc1cc(/C=C/c2nc(C#N)c(N3CCN(C)CC3)o2)cc(OC)c1OC
 : 0% | -9%
Cn1c(SCc2ccc(C(F)(F)F)cc2)nc2c([nH]c3ccccc32)c1=O
 : -10% | -5%
COc1ccc(-c2cn3c(n2)sc2cc(C(=O)Nc4cc(OC)cc(OC)c4)ccc23)cc1
 : -15% | 9%
CC(C)CNC(=O)C1=CC(c2ccc3c(c2)OCO3)=NS(=O)(=O)N1C
 : 79%[activator] | -9%
O=C(CSc1nc2nccnc2c(=O)n1CCc1c[nH]c2ccccc12)Nc1ccccc1F
 : -7% | 12%
CC(C)C(=O)NC(C)c1ccc2c(c1)CCCC2 (centres undefined)
 : 9% | 28%
Cc1nc(N2CCOCC2)c2c(C(=O)N3CCN(c4cccc(C(F)(F)F)c4)CC3)c(C)oc2n1
 : -6% | -18%
CNc1c(NC(=O)c2cccc(Cl)c2)c(=O)oc2ccccc12
 : 11% | 0%
Cc1ccccc1C(=O)N1CCC(c2nc(-c3ccc(S(=O)(=O)N4CCCC4)cc3)no2)CC1
 : -16% | 3%
Cc1ccsc1C(=O)OCC(=O)NC(=O)NC1CCCC1
 : 15% | 119%[activator]
Cc1ccc(-c2cnc(CCC(=O)N3CCN(c4ccc([N+](=O)[O-])cc4)CC3)o2)cc1C
 : -17% | 1%
CN(C(=O)CCc1c[nH]c2ccccc12)c1ccccc1
 : 4% | 18%
COc1cccc(Nc2nc3ccccc3nc2NS(=O)(=O)c2cccs2)c1
 : 29% | 49%[activator]
COCCNC(=O)CNC(=O)c1nn(-c2ccc(OC)cc2OC)c(=O)c2ccccc12
 : -1% | 0%
CCCNC(=O)Nc1cc(C(=O)NCc2cccc(OCC)c2)ccc1N1CCCC1
 : 19% | -7%
Cc1nsc(N)c1C(=O)OCc1csc(-c2ccccc2)n1
 : 1.8µM* | -13%
Cn1c(N2CCCCC2)nc2c1c(=O)n(Cc1cccc(Cl)c1)c(=O)n2C
 : -15% | 2%
O=C(O)c1ccc(NCc2ccc(Cl)cc2)cc1
 : 7% | 0%
COc1ccc(C(Nc2ccccn2)c2c(NC(=O)c3ccccc3)sc(C)c2C)cc1OC (centres undefined)
 : 15% | 245%[activator]
O=C(NCc1ccccc1)c1nc(-c2ccc3[nH]ccc3c2)no1
 : 235%[activator] | 21%
CC(C)n1ncc2c(C(=O)Nc3ccccc3F)c3c(nc21)CCC3
 : 27% | 24%
CCOc1ccccc1CNC(=O)CC(C)n1nc(C)cc1C (centres undefined)
 : -3% | 2%
CCOc1ccc(N(CC)C(=O)C2CCN(S(=O)(=O)c3cccc4nonc34)CC2)cc1
 : -13% | -21%

# Brought forward from above: two compounds; new compounds follow.
# Values run as follows: 2A Renilla | StopGo FLuc
CCOc1ccccc1CNC(=O)CC(C)n1nc(C)cc1C (centres undefined)
 : -3% | 2%
CCOc1ccc(N(CC)C(=O)C2CCN(S(=O)(=O)c3cccc4nonc34)CC2)cc1
 : -13% | -21%
Cc1nc(N2CCCC2)ncc1C(=O)Nc1ccc(F)cc1F
 : ? | 40%[activator]
Cc1ccc(NC(=O)CSc2nnc(-c3cc4occc4n3C)n2-c2ccccc2C)c(Cl)c1
 : 4% | 21%
Cc1ccc(C2C3=C(CC(C)(C)CC3=O)Nc3c2c(=O)[nH]c(=O)n3C)cc1 (centres undefined)
 : 100%[activator] | 15%
O=C(CSc1c2c(nc3cc(Cl)ccc13)CCCC2)NCc1ccccc1Cl
 : -13% | 0%
CCCn1c(NCc2ccccc2F)nc2ccccc21
 : 12% | 77%[activator]
CN(Cc1ccccc1)C(=O)CSc1nc2ccccc2n1Cc1ccccc1F
 : -4% | -12%
COc1ccc(CNC(=O)CCn2c(=O)c3cccn3c3ccc(F)cc32)cc1OC
 : 2% | -3%
CCCCCCCCOc1ccc(/C=C/C(=O)O)cc1
 : 9% | 16%
O=c1cc(CN2CCN(c3ccccc3)CC2)occ1OCc1ccccc1
 : -16% | 21%
O=C(Nc1cccc(S(=O)(=O)N2CCCC2)c1)c1n[nH]c2ccccc12
 : 38%[activator] | 149%[activator]
O=C(NC1CCN(C(=O)C2CC2)CC1)c1cc2cc(F)ccc2[nH]1
 : 7% | -1%
CCOc1ccc2c(c1)cc(C(=O)NCCOc1ccccc1)n2C
 : 9% | 74%[activator]
C1CCC(NC2CCCCC2)CC1
 : -16% | -22%
CCSCCC(=O)Nc1ccc(Cl)c(C(=O)NC)c1
 : 18% | 15%
N#Cc1ccc2c(c1)OCCO2
 : -1% | 130%[activator]
COc1ccc(NS(=O)(=O)c2ccc(OCC(=O)NCc3ccccc3OC)c(C)c2)cc1
 : 115%[activator] | ?

# Only part of the results is shown. The share of hits here may be higher or lower than overall.
